Compound activity deposited in PubChem by several laboratories.
Rce1 inhib: yeast Rce1p protease inhibitors, primary screen, biochemical, fluorescence, cell-free homogeneous. 290,000 tested, 0.27% active. yeast membranes, quenched prenylated peptide cleavage fluorescence. calls only. CAAX prenyl protease 2 (Saccharomyces cerevisiae (strain ATCC 204508 / S288c)), Q03530. AID 2563, 2010;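 active = fall in fluorescence gain of 50% or more versus controls, with final raw signal at or below 3038400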;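 note: plate controls were neutral control wells for no effect and wells lacking membranes for full effect; tested at 10 µM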
Target sequence (Q03530 whole entry, looked up): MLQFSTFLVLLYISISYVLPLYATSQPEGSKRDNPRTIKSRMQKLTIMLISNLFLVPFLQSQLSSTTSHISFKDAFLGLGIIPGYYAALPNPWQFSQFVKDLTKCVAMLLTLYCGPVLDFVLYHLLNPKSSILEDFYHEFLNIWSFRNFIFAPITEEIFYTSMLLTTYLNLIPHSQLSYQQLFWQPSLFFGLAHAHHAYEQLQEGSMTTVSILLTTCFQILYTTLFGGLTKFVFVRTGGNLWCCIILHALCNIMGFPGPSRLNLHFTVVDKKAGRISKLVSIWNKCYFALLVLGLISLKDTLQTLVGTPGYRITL
MT1-MMP act inh: blockers of MT1-MMP proenzyme processing, primary screen, HT1080 RFP-PRO-GFP cells, GFP/RFP fluorescence. GFP/RFP ratio fluorescence, overnight; percent of plate control window, DMSO zero. GFP/RFP ratio change, % at 20 µM. 360,000 tested, 0.061% active. Matrix metalloproteinase-14 (Homo sapiens), P50281. AID 651647, 2012;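 active = GFP/RFP ratio change of at least 30% with cell ATP level not reduced by more than half and red fluorescence within 50% of control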; note: strong numbers were not always called active
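Compound: 20 µM single dose, 1% DMSO / System: HT1080 RFP-PRO-GFP cells / Controls: DMSO and RFP-L50D-GFP cell wells / Read-out basis: GFP/RFP fluorescence ratio / Schedule: overnight compound exposure at 37 °C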
CSC inhib: cancer stem cell viability inhibitors, primary screen, luminescence. cancer stem cell-like cells viability. inhibition, % at 7.5 µM. 300,000 tested, 1.1% active. AID 2717, 2010;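 active = mean at 75% or more and at least half the replicates too; tested in HMLE shEcad cells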;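 note: 0% = median of negative and 100% = median of positive control wells; the first replicate is given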
eIF4H inh: human eIF4H binding inhibitors, primary screen, translation initiation inhibitor project, biochemical, uHTS, fluorescence polarization | Eukaryotic translation initiation factor 4H (Homo sapiens), Q15056 | 290,000 tested, 0.94% active | eIF4H fluorescence polarization binding assay | inhibition, % at 35 µM;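 active = 50% or more with normal probe brightness, or confirmed in later tests; about a fifth of its hits are not listed in these tables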;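 note: calls also rest on retests at 20 µM and on dose response follow-up; 0% = protein and probe with vehicle and 100% = probe without protein; strong numbers were not always called active; many hits fall short of the cut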
PABP polyA inh: PABP poly(A) RNA binding inhibitors, primary screen, biochemical, fluorescence polarization, uHTS; Polyadenylate-binding protein 1 (Homo sapiens), P11940; inhibition, % at 35 µM; 290,000 tested, 1% active;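 active = 50% or more with normal probe brightness, or confirmed in later tests; about a fifth of its hits are not listed in these tables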;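 note: calls also rest on retests at 20 µM and on dose response follow-up; controls were probe without protein and protein plus probe with vehicle; some compounds called inactive have numbers as strong as hits; many hits fall short of the cut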
Yeast UUG start: modulators of yeast start codon fidelity, primary screen, whole organism, S. cerevisiae, single point, plate reader; AID 602363, 2012; 350,000 tested, 0.13% active; activity score, % at 18.7 µM; S. cerevisiae UUG-firefly luciferase reporter, luminescence/redox ratio;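 active = replicate mean at a twofold rise or more, about +100% in these data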;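 note: firefly luciferase made from a UUG start codon reports start codon fidelity; reporter light over untreated wells divided by growth signal over untreated wells; some hits fall short of that in this replicate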
HIV Env fusion: inhibitors of HIV-1 Env-driven cell-cell fusion, primary screen, HeLa-JRFL effector, CEM21 target cells, luciferase; inhibition, % at 12.3 µM; 360,000 tested, 1.1% active;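 active = mean replicate inhibition score of at least 50 and every replicate individually at or above 50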;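 note: 0% = plate neutral controls and 100% = maraviroc near 300 nM; one replicate is shown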
eIF4H inh retest: also measured in eIF4H inh; calls as there; inhibition, %; compound at 20 µM; confirmation average;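 mean of two retest wells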
PABP polyA inh retest: recorded beside PABP polyA inh, whose call it bears; inhibition, %; compound at 20 µM; confirmation repeats;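 mean of two retest wells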
MT1-MMP act inh RFP: further read-out of MT1-MMP act inh, marked with its call; RFP signal change, %; measured here: RFP expression control read;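 0 = vehicle wells; hits needed this value within 50% of zero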
Starred values were filed as active, the others as inactive; i = inactive; nt = not tested or not shown. A portion of the library; the hit share may differ from the screen's.

SMILES	Rce1 inhib	MT1-MMP act inh	MT1-MMP act inh RFP	CSC inhib	eIF4H inh	PABP polyA inh	Yeast UUG start	HIV Env fusion	others
CC1(C(=O)N(c2ccccc2)C(C(=O)NC2CCCC2)c2ccccn2)CC(=O)N=C2C=CC=CN21 (stereo unspecified)	nt	4	-2	nt	4	-8	-13	nt
O=C(CSc1ccc(Cl)cc1)N1CCN(c2ccc([N+](=O)[O-])cc2Cl)CC1	i	-6	-22	35	-7	-5	-7	65
Cc1ccc(NC(=S)N/N=C/c2ccc([N+](=O)[O-])s2)cc1	i	-13	-12	1	-8	-10	-39	7
CC(=O)N1N=C(N)SC1(C)C	i	-2	-2	13	-5	-17	-5	15
CC(C)(C)NC(=O)C(c1ccc(F)cc1)N(CC1CCCO1)C(=O)c1csnn1 (stereo unspecified)	i	-3	1	-14	-15	1	-4	28
CC(C)(C)C1CCc2onc(C(=O)Nc3ccc4c(c3)OCO4)c2C1 (stereo unspecified)	i	-1	-3	10	17	14	-13	25
COc1ccc(CCOC(=O)c2ccc(NC(=O)CC#N)cc2)cc1	i	-3	-4	-1	-8	-2	-19	5
Cc1cc(Cl)c(C)c(S(=O)(=O)Oc2ccccc2NC(=O)CCC(=O)O)c1Cl	nt	0	7	-12	nt	nt	-8	4
COc1ccc(-c2cc(C(F)F)n3ncc(C(=O)Nc4cc(C)on4)c3n2)cc1	nt	-1	-2	7	-4	-3	nt	-26
O=C1C=CC(c2ccccc2)(c2ccccc2)CC1	nt	-4	-1	nt	nt	nt	-13	-8
COc1cccc(NC(=O)c2ccc(-n3cnnn3)cc2)c1	i	1	-2	2	-2	-1	-11	15
CCN(CC)CCn1c(SCC(=O)Nc2cccc(OC)c2)nc2c(sc3ccccc32)c1=O	i	-1	-4	16	-1	-18	nt	24
Cc1ccc2[nH]c3c(N4CCCCCC4)ncnc3c2c1	i	nt	nt	nt	-4	-3	nt	nt
CCCCCCCCC(c1nc2ccccc2[nH]1)N1CCN=C(c2ccccc2)C1=O (stereo unspecified)	nt	-28	-29	nt	nt	nt	-23	3
COc1ccc(C(=O)NCC(=O)N2CCN(c3ncccn3)CC2)cc1OC	nt	1	2	-15	nt	nt	-5	7
O=C(c1cc(-c2ccccn2)nc2ccccc12)N1CCN(c2ncccn2)CC1	i	-3	2	-7	-4	-2	nt	-7
CC1=C(C#N)C(=O)OC(C)(C)C1	i	-27	8	9	122*	116*	nt	nt	eIF4H inh retest=88*;PABP polyA inh retest=83*
NC(=O)c1ccsc1NC(=O)Cc1ccc([N+](=O)[O-])cc1	i	6	1	-5	6	-16	-1	6
Cc1ccc(NC(=O)c2cccc(S(=O)(=O)NCc3ccccc3)c2)nc1	i	4	-6	17	nt	nt	-19	15
COc1cc(C(=O)N=c2sc3ccccc3n2C)cc(OC)c1OC	i	3	-2	-13	-1	4	nt	-3
O=C(NC1CCCc2ccccc21)c1c(F)cccc1Cl (stereo unspecified)	i	-2	-2	-3	-2	5	-8	8
Cc1ccc(SCC(=O)Nc2ccccc2C(=O)N2CCOCC2)cc1	i	6	5	nt	-4	-1	nt	-10
Cc1ccccc1N/N=C/c1c(C)nc2ccccn12	i	4	4	7	-3	0	-17	10
CCCc1cc(C(=O)NNC(=S)Nc2cccc(C)c2)cs1	i	3	7	17	-1	29	-13	-21
N#CCSc1nc2c(cc1C#N)CCCC2	i	3	5	-3	-2	0	-10	0
O=C(NCc1ccco1)c1ccc(Cl)c(S(=O)(=O)Nc2ccccc2)c1	i	-1	-1	5	-6	-2	nt	-3
COc1cc2c(cc1OC)C(c1cc(OC)c(OC)c(OC)c1)C1(O)C(=O)OCC1(O)C2 (stereo unspecified)	nt	7	0	nt	nt	nt	-8	-80
O=C(c1ccc(F)cc1Cl)N1CCN(S(=O)(=O)c2cccs2)CC1	i	0	0	1	-7	-8	1	-1
COc1ccc(C(CNC(=O)COc2c(C)cc(C)cc2C)N2CCOCC2)cc1 (stereo unspecified)	nt	-3	-1	11	nt	nt	-9	nt
Cn1nc(NC(=O)C2CCC2C(=O)O)c2c(F)cccc21 (stereo unspecified)	i	-8	-3	-13	-3	-5	nt	-11
O=C(COc1ccc(Cl)cc1Cl)NCc1ccncc1	i	-5	-6	nt	-4	-5	-15	2
Oc1c(Br)cccc1/C=N/c1ncn[nH]1	i	-2	1	2	-1	-2	-8	-1
CCCCCOC(=O)NC1CCS(=O)(=O)C1 (stereo unspecified)	i	4	3	-2	1	4	nt	-5
O=C(Nc1ccnn1C1CCN(Cc2cccc(OCCO)c2)CC1)C1CCOC1 (stereo unspecified)	i	1	2	-3	-4	12	11	nt
CCn1c(CNc2cccc(Cl)c2)nnc1SCC(=O)OC1CCCCC1	i	0	3	-3	1	2	-21	-56
Clc1ccc(-c2c[n+](Cc3ccc(Br)cc3)c3n2CCCCC3)cc1	i	-10	-23	6	6	1	nt	14
Cc1ccccc1C(=O)Nc1ccc(O)cc1C(=O)O	i	4	5	-5	4	1	-22	-6
CCCNC(=O)C1(C)CCCN(C(=O)c2cc(C)n(C(C)(C)C)n2)C1 (stereo unspecified)	nt	5	7	nt	nt	nt	-7	-198
O=C(COc1ccc2c3c(c(=O)oc2c1)CCCC3)N[C@@H](Cc1ccccc1)C(=O)O	i	3	4	5	-9	4	4	nt
CCN1CCN(c2nc(Nc3cccc(F)c3)nc(N)c2[N+](=O)[O-])CC1	i	3	-7	6	3	7	-17	-12
CCOC(=O)c1cc(S(=O)(=O)N2CCc3ccccc32)cn1C	i	0	-10	-19	nt	nt	-13	8
Cc1ccc(C(=O)Nc2ccc(O)cc2C(=O)O)cc1	i	-1	3	-15	-6	3	-19	-17
COCCn1c(Cc2ccccc2)nnc1SCC(=O)N1CCOCC1	i	0	3	-11	-2	-20	nt	-5
COc1ccc(C(=O)N2c3ccccc3C=CC2C#N)cc1 (stereo unspecified)	i	0	0	1	-4	14	nt	9
Cc1noc(C)c1S(=O)(=O)NCC(=O)O	nt	4	7	-8	-4	-8	-10	nt
Clc1ccccc1-c1ccc(/C=N/n2cnnc2)o1	i	3	0	-17	10	3	-7	27
O=C(CN1C(=O)NC(c2ccccc2)(c2ccccc2)C1=O)NCC(=O)Nc1ccc(F)cc1	nt	1	0	-11	nt	nt	14	-2
CCC1CCCCN1CC(=O)c1c(C)[nH]c2ccc(OC)cc12 (stereo unspecified)	i	0	1	-12	-4	2	nt	2
CCOc1ccc(S(=O)(=O)N2CCN(C(=O)Cc3n[nH]c(=O)c4ccccc34)CC2)cc1	nt	1	1	nt	nt	nt	2	-3
N#C/C(=C\c1ccc(-c2cccc(Cl)c2)o1)C(=O)Nc1cccc2cccnc12	i	-14	3	-9	82*	86*	-16	-9

Of the compounds above, 2 have bromine:
SMILES	Rce1 inhib	MT1-MMP act inh	MT1-MMP act inh RFP	CSC inhib	eIF4H inh	PABP polyA inh	Yeast UUG start	HIV Env fusion	others
Oc1c(Br)cccc1/C=N/c1ncn[nH]1	i	-2	1	2	-1	-2	-8	-1
Clc1ccc(-c2c[n+](Cc3ccc(Br)cc3)c3n2CCCCC3)cc1	i	-10	-23	6	6	1	nt	14

Further compounds
SMILES	Rce1 inhib	MT1-MMP act inh	MT1-MMP act inh RFP	CSC inhib	eIF4H inh	PABP polyA inh	Yeast UUG start	HIV Env fusion	others
O=c1cc(-c2cccc3ccccc23)[nH][nH]1	i	7	2	8	-3	7	-28	nt
O=c1c(C=Nc2ccc(Oc3ccccc3)cc2)c[nH]n1-c1cccc(Cl)n1	i	4	-1	-13	-4	1	-27	-57
CC(=O)Nc1ccc(-c2ccnc3c2CC(C(=O)Nc2cccnc2)O3)cc1 (stereo unspecified)	nt	-4	-6	nt	nt	nt	-9	-63
Cc1ccc(Cl)cc1NC(=O)c1cccc(OC(F)F)c1	i	-3	-1	4	-6	-6	-23	nt
COCCn1nnnc1C(c1ccccc1OC)N1CCN(c2ccccc2)CC1 (stereo unspecified)	i	-1	-4	15	-8	22	18	nt
Cc1cc(Oc2ccc(=O)n(C)n2)nc(SCC(N)=O)n1	i	-3	-3	11	-1	-6	nt	5
CCCN1Cc2cccc(C(=O)N3CCN(c4cc(Cl)ccc4C)CC3)c2C1=O	i	2	-5	nt	-1	3	-3	nt
COc1ccc(CCN(C)C(=O)CSc2nc3ccccc3c(=O)n2CC2CCCO2)cc1OC (stereo unspecified)	nt	2	-2	nt	nt	nt	-4	16
Cc1cc(OCC(=O)O/N=C(\N)c2ccccc2)ccc1Br	i	-2	-5	0	-5	12	nt	2
Cc1ccc(Cl)c(OCC(=O)N2CCc3ccccc3C2)c1	i	-1	3	nt	-9	0	8	-14
O=C(O)c1ccc(/C=N/Nc2cccc(C(F)(F)F)c2)cc1	nt	1	2	26	5	18	0	-18
CCN(CC)S(=O)(=O)c1cccc(C(=O)c2c(C)cc3ccccn23)c1	nt	3	-2	nt	8	4	nt	-21
O=C(NC(=S)Nc1ccc(CN2CCCCC2)cc1)c1ccco1	i	4	5	12	-8	5	nt	5
CCC(=O)Nc1sc2c(c1C(N)=O)CCN(C(C)=O)C2	i	4	6	-13	-1	0	3	21

By substructure, the entries above with an aryl thioether with sulfur outside any ring.
SMILES	Rce1 inhib	MT1-MMP act inh	MT1-MMP act inh RFP	CSC inhib	eIF4H inh	PABP polyA inh	Yeast UUG start	HIV Env fusion	others
O=C(CSc1ccc(Cl)cc1)N1CCN(c2ccc([N+](=O)[O-])cc2Cl)CC1	i	-6	-22	35	-7	-5	-7	65
CCN(CC)CCn1c(SCC(=O)Nc2cccc(OC)c2)nc2c(sc3ccccc32)c1=O	i	-1	-4	16	-1	-18	nt	24
Cc1ccc(SCC(=O)Nc2ccccc2C(=O)N2CCOCC2)cc1	i	6	5	nt	-4	-1	nt	-10
N#CCSc1nc2c(cc1C#N)CCCC2	i	3	5	-3	-2	0	-10	0
CCn1c(CNc2cccc(Cl)c2)nnc1SCC(=O)OC1CCCCC1	i	0	3	-3	1	2	-21	-56
COCCn1c(Cc2ccccc2)nnc1SCC(=O)N1CCOCC1	i	0	3	-11	-2	-20	nt	-5
Cc1cc(Oc2ccc(=O)n(C)n2)nc(SCC(N)=O)n1	i	-3	-3	11	-1	-6	nt	5
COc1ccc(CCN(C)C(=O)CSc2nc3ccccc3c(=O)n2CC2CCCO2)cc1OC (stereo unspecified)	nt	2	-2	nt	nt	nt	-4	16
